Bioassay records from PubChem BioAssay.
PINK1 expr mod – changes PINK1 expression; Potency, µM (series often up to 76.6 µM), for the others: at the top dose activation (PINK1 increase), most hits filed as activators; PINK1 immunofluorescence, high-content cytometry, 24 h; AID 624263; 410,000 tested, 0.2% active; active = well fitted activation curve with a large enough effect; inconclusive = small, poorly fitted or top-dose-only effect; inactive = flat fitted curve, though single readings scatter; cell line not stated here;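 also: potency is read from the fitted curve at half-maximal effect; % of control where 0% means no effect; nearly all actives have a fitted effect of over 65% in size; a mitochondrial uncoupler was the plate control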
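A stable cell line was treated with compounds at 5 concentrations for 24 hours, with CCCP as control. PINK1 levels and mitochondrial localization were measured by immunofluorescence with mitochondrial, cell and nuclear markers after fixation, read by laser-scanning cytometry.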
D2 PAM – human D2 receptor positive allosteric modulation; DiscoveRx D2 beta-arrestin cells, luminescence, 90 min; 100% = 57 uM dopamine signal; potentiation, % (test concentration not listed); 360,000 tested, 0.23% active; AID 624464; active = potentiation of 50% or more; inconclusive = 30% to 50%; inactive = 30% or less;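 also: compound concentration not given in the record; tested on top of an EC20 dose of dopamine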
Target sequence (P14416 whole entry, looked up): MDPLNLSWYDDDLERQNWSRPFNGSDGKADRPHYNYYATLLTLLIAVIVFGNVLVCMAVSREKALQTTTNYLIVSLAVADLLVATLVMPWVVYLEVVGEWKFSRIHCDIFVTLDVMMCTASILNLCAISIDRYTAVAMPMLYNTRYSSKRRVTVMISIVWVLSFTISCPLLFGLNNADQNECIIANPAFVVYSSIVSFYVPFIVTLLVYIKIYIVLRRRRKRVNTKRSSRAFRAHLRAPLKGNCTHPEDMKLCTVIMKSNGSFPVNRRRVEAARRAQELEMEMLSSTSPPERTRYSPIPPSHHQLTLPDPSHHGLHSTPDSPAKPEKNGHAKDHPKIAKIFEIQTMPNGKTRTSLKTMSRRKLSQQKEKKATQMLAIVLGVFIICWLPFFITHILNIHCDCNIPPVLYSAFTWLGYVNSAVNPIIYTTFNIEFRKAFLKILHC
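PathHunter beta-arrestin assay in DiscoveRx D2 cells. Compounds were added with an EC20 of dopamine (50 nM final) for 90 min at 37 deg C. Luminescence was read 1 h after detection reagent, with 57 uM dopamine as the EC100 control.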
CtBP-E1A inh – blocks the CtBP interaction with E1A; 340,000 tested, 0.49% active; AID 651724; AlphaScreen GST-E1A/His-CtBP binding, 1536-well; hits give low values; control for the full effect not named in the record; activity change, % (no concentration beside the values); in the data active means activity change below about -65%; inconclusive means about -30% to -65%; inactive means above about -30%; also: % is scaled to controls: 0 for no effect and ±100 for the full control effect; compound concentration not given in the record
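Protein mix (5X: 125 nM each GST-E1A, His-CtBP) was incubated with pinned compound 2 h at 37 deg C in dark, in 50 mM Tris pH 8.0 buffer with 300 mM NaCl. Glutathione donor and nickel acceptor beads followed; AlphaScreen signal read after 1 h.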
Six1-Eya2 blk – Six1/Eya2 interaction inhibition. Q15475+O00167. AlphaScreen GST-Six1/His-Eya2 binding, biochemical; hits give low values; control for the full effect not named in the record. activity change, % (test concentration not listed). 360,000 tested, 0.56% active. AID 651725; in the data active = activity change below about -65%; inconclusive = about -30% to -65%; inactive = above about -30%; also: % is scaled to controls: 0 for no effect and ±100 for the full control effect; compound concentration not given in the record
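AlphaScreen luminescence read after one hour at 37 °C in darkness. Pin-transferred compounds met GST-Six1 and His-Eya2 protein (5X stock 250 nM/500 nM) plus glutathione donor and Ni-chelate acceptor beads (5X, 50 ug/mL).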
D2 ag – activates the human D2 dopamine receptor. DiscoveRx PathHunter D2 beta-arrestin, luminescence, 90 min; 100% = 57 uM dopamine signal. activation, % (concentration not given with the values). 360,000 tested, 0.084% active; in the data active = activation above about 40%; inconclusive = about 15% to 40%; inactive = below about 15%; also: compound concentration not given in the record; the text of the record calls up to 30% inactive
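Agonist mode: compounds alone added to overnight-plated D2 PathHunter cells for 90 min at 37 C, with 57 uM final dopamine (EC100) defining full response. Beta-arrestin recruitment detected by chemiluminescent reagent, read after 1 h at ambient temperature.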
TRPML1 agonist – activates the human TRPML1 channel. Q9GZU1. TRPML1-expressing cells, Ca2+ dye fluorescence, FDSS; host cell line not named in the record; reference of the full effect not given here. activation, % (test concentration not listed). 410,000 tested, 0.12% active; in the data active = activation above about 50%; inconclusive = about 30% to 50%; inactive = below about 30%; also: 0% is about no effect; the text of the record puts the active cut at 80%
Target sequence (Q9GZU1 whole entry, looked up): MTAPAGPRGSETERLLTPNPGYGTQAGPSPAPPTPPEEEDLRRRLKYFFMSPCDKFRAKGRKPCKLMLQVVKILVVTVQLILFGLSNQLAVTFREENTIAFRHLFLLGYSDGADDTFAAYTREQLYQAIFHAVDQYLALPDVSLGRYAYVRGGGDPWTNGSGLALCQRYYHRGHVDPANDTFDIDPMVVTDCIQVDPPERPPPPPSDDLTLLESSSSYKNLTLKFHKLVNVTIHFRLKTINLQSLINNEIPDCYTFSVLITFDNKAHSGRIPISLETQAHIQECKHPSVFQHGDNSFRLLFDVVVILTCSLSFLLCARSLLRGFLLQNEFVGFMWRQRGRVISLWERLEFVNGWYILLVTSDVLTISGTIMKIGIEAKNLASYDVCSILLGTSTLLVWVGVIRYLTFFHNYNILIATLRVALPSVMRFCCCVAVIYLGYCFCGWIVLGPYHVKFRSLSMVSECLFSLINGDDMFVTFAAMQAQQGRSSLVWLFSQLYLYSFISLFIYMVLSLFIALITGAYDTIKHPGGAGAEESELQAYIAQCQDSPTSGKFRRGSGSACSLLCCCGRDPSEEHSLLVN
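Tet-induced TRPML1-DL cells, 1,500 per well, cultured overnight, were loaded with a no-wash Ca2+ dye for 45–90 min. Calcium fluorescence was recorded on the FDSS for 110 s after compound addition, before the EC80 agonist (4 uM 54-4) was added.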
An asterisk follows results filed as active; [ ] = remark or other dose.

For CC(C)c1nc2ccc(Br)cn2c1NC1CCCC1 the results were PINK1 expr mod 0.5%, D2 PAM -12, CtBP-E1A inh 13, Six1-Eya2 blk -3, D2 ag -2.8 and TRPML1 agonist -0.3.
For Nc1nonc1-n1nnc(C(=O)N/N=C/c2ccccc2F)c1CN1CCc2ccccc21 the results were PINK1 expr mod 2.0%, D2 PAM -6, Six1-Eya2 blk -12, D2 ag -2.4 and TRPML1 agonist 0.4.
For CSc1nc2c(c(=O)[nH]1)C(c1ccncc1)C(C(=O)OC(C)C)=C(C)N2 (configuration not stated) the results were PINK1 expr mod 2.6%, D2 PAM 6, CtBP-E1A inh 0, Six1-Eya2 blk 0, D2 ag -0.8 and TRPML1 agonist -0.2.
Screening O=C(CNS(=O)(=O)c1cccc(F)c1)OCC(=O)N1CCCC1=O returned PINK1 expr mod 1.5%, D2 PAM -2, CtBP-E1A inh 2, Six1-Eya2 blk 0, D2 ag -2.9 and TRPML1 agonist 0.5.
CCCC(C)C(=O)OCC(=O)NCc1ccc(OC)c(OC)c1 (configuration not stated) was read as PINK1 expr mod -0.7%, D2 PAM -1, CtBP-E1A inh 8, Six1-Eya2 blk 6, D2 ag -2.7 and TRPML1 agonist 0.5.
`COCc1cc(=O)[nH]c2cc(NC(=O)c3cccc(OC)c3)c(C)cc12` gave PINK1 expr mod 6.8%, D2 PAM -1, CtBP-E1A inh 0, Six1-Eya2 blk -9, D2 ag 0.4 and TRPML1 agonist 1.3.
Cc1ccc(OC(=O)c2cccc([N+](=O)[O-])c2)c(-n2nc3ccccc3n2)c1 was read as PINK1 expr mod 22%, D2 PAM -5, CtBP-E1A inh -20, Six1-Eya2 blk 11, D2 ag 3.0 and TRPML1 agonist 1.4.
For CCN(CC)c1ccc(S(=O)(=O)N2CCOCC2)cc1NC(=O)CNCc1ccccc1 the results were PINK1 expr mod 2.9%, D2 PAM -11, CtBP-E1A inh -11, Six1-Eya2 blk -6, D2 ag -1.8 and TRPML1 agonist 0.7.
For CCCCNC(=O)C1CCCN(S(=O)(=O)CC)C1 (configuration not stated) the results were PINK1 expr mod -0.2%, D2 PAM -6, Six1-Eya2 blk 1, D2 ag 4.6 and TRPML1 agonist 0.2.
C[C@H](NC(=O)C1CC(=O)N(c2ccc3c(c2)OCCO3)C1)C(=O)NCc1ccco1 (some centres not stated) was read as PINK1 expr mod 0.7%, D2 PAM 0, CtBP-E1A inh 2, Six1-Eya2 blk 5, D2 ag 2.7 and TRPML1 agonist 1.1.
Screening CC(C)CN(C(=O)CCC(=O)OCC(=O)NCCc1ccccc1)c1c(N)n(CC(C)C)c(=O)[nH]c1=O returned PINK1 expr mod 1.1%, D2 PAM -26, CtBP-E1A inh 6, Six1-Eya2 blk 2, D2 ag -6.3 and TRPML1 agonist 0.0.
`O=c1[nH]nc(SCCS(=O)(=O)c2ccc(F)cc2)n1-c1ccccc1` gave PINK1 expr mod 3.1%, D2 PAM 1, CtBP-E1A inh 16, Six1-Eya2 blk 6, D2 ag 4.6 and TRPML1 agonist -0.7.
`COc1ccc(S(=O)(=O)N(C)CC(=O)NCc2ccc3c(c2)OCO3)cc1` gave PINK1 expr mod 1.2%, D2 PAM 0, CtBP-E1A inh 7, Six1-Eya2 blk 2, D2 ag 4.1 and TRPML1 agonist -0.8.
For Cc1ccc(-c2noc(CSc3nnc(-c4cccs4)n3C)n2)cc1 the results were PINK1 expr mod 12%, D2 PAM -2, CtBP-E1A inh 6, Six1-Eya2 blk 2, D2 ag -3.5 and TRPML1 agonist -0.3.
For Cc1ccc(NC(=S)C2=C(O)c3sccc3N(C)S2(=O)=O)cc1 the results were PINK1 expr mod -0.2%, D2 PAM 3, CtBP-E1A inh -1, Six1-Eya2 blk 1, D2 ag -3.1 and TRPML1 agonist -0.3.

Continued, overlapping the part above by 2 compounds.
For Cc1ccc(-c2noc(CSc3nnc(-c4cccs4)n3C)n2)cc1 the results were PINK1 expr mod 12%, D2 PAM -2, CtBP-E1A inh 6, Six1-Eya2 blk 2, D2 ag -3.5 and TRPML1 agonist -0.3.
For Cc1ccc(NC(=S)C2=C(O)c3sccc3N(C)S2(=O)=O)cc1 the results were PINK1 expr mod -0.2%, D2 PAM 3, CtBP-E1A inh -1, Six1-Eya2 blk 1, D2 ag -3.1 and TRPML1 agonist -0.3.
For Oc1c(C(c2cccc(F)c2)N2CCN(Cc3ccccc3)CC2)sc2ncnn12 (configuration not stated) the results were PINK1 expr mod 1.0%, D2 PAM -8, CtBP-E1A inh -16, Six1-Eya2 blk -5, D2 ag -6.4 and TRPML1 agonist -0.6.
`C[C@]12CCC(=O)CC1CCC1C2CC[C@@]2(C)C1CC[C@@]21CCO1` (some centres not stated) gave PINK1 expr mod -0.4%, D2 PAM -1, CtBP-E1A inh -1, Six1-Eya2 blk 5, D2 ag 2.0 and TRPML1 agonist -0.2.
For NC(=O)CCS(=O)(=O)c1ccccc1 the results were PINK1 expr mod 3.2%[38.3 µM], D2 PAM 1, CtBP-E1A inh 11, Six1-Eya2 blk 6, D2 ag -0.8 and TRPML1 agonist -0.1.
`Cc1cccc(NS(=O)(=O)c2cc(C(=O)N3CCCCCC3)ccc2C)c1` gave PINK1 expr mod -1.5%, D2 PAM -2, CtBP-E1A inh -2, Six1-Eya2 blk 16, D2 ag -3.5 and TRPML1 agonist 0.8.
For CC(=O)N1CCN(S(=O)(=O)c2c(F)cc(F)c(Cl)c2F)CC1 the results were PINK1 expr mod 1.4%, D2 PAM 1, CtBP-E1A inh -7, Six1-Eya2 blk -1, D2 ag -3.7 and TRPML1 agonist 1.1.
`Cc1ccc(C)c(OCC(=O)Nc2cc(NC(=O)COc3cc(C)ccc3C)cc(C(=O)O)c2)c1` gave PINK1 expr mod 3.4%, D2 PAM 14, CtBP-E1A inh 9, Six1-Eya2 blk -13, D2 ag 2.8 and TRPML1 agonist 0.4.
COc1ccc(Cl)cc1C(Nc1cccnc1)c1ccc2cccnc2c1O (configuration not stated) was read as PINK1 expr mod 7.4%, D2 PAM -2, CtBP-E1A inh -67*, Six1-Eya2 blk inconclusive, D2 ag 4.2 and TRPML1 agonist 2.1.
Screening COc1ccc(N2CCCn3c2nc2c3c(=O)n(CCN3CCOCC3)c(=O)n2C)cc1 returned PINK1 expr mod 0.6%, D2 PAM -30, CtBP-E1A inh -2, Six1-Eya2 blk -9, D2 ag -0.8 and TRPML1 agonist -0.7.
For COc1ccc2cc(C(=O)N3CCC(Cc4ccccc4)CC3)[nH]c2c1 the results were PINK1 expr mod 5.3%, D2 PAM -14, Six1-Eya2 blk -14, D2 ag 4.9 and TRPML1 agonist 0.4.
Screening Cc1cc(C)c(NC(=O)CCCCCNC2CCCCC2)c(C)c1 returned PINK1 expr mod 3.6%, D2 PAM 2, CtBP-E1A inh 11, Six1-Eya2 blk 8, D2 ag -0.7 and TRPML1 agonist -0.6.
Screening CC(C)N1CCSC1=S returned PINK1 expr mod 0.7%, D2 PAM 1, CtBP-E1A inh 9, Six1-Eya2 blk 4, D2 ag -2.4 and TRPML1 agonist -0.1.
`C[C@H]1CC[C@@]2(O[C@@H](CCO)C[C@H](O)[C@H]2O)O1` gave PINK1 expr mod 0.6%, D2 PAM -11, Six1-Eya2 blk 3, D2 ag -5.4 and TRPML1 agonist 0.2.
NC(=O)N/N=C/c1cc(F)cc(F)c1 was read as PINK1 expr mod -1.7%, D2 PAM -6, CtBP-E1A inh -1, Six1-Eya2 blk -2, D2 ag -3.5 and TRPML1 agonist 0.1.
O=C(CSc1ccc(/C=N/NC(=O)c2cccc(F)c2)o1)Nc1ccccc1 was read as PINK1 expr mod 1.8%[38.3 µM], D2 PAM -18, CtBP-E1A inh 2, Six1-Eya2 blk -1, D2 ag -1.1 and TRPML1 agonist 1.1.
Cc1sc2ncnc(N3CCC(C(=O)Nc4nc5ccc(Cl)cc5s4)CC3)c2c1C was read as PINK1 expr mod 7.1%, D2 PAM -12, CtBP-E1A inh 1, Six1-Eya2 blk 2, D2 ag -1.2 and TRPML1 agonist 0.4.
Cc1ccc(C(=O)Oc2ccc(C(=O)COC(=O)c3cnccn3)cc2)cc1 was read as PINK1 expr mod -20%[38.3 µM], D2 PAM -7, CtBP-E1A inh 2, Six1-Eya2 blk inconclusive, D2 ag -0.2 and TRPML1 agonist -0.3.
`N#Cc1nc(-c2ccco2)oc1N1CCOCC1` gave PINK1 expr mod 13%[38.3 µM], D2 PAM -1, CtBP-E1A inh 4, Six1-Eya2 blk 0, D2 ag -0.2 and TRPML1 agonist -0.3.
C=CCOc1c(CNc2cccc(C(=O)O)c2)cccc1OCC was read as PINK1 expr mod 3.8%[38.3 µM], D2 PAM 2, CtBP-E1A inh 5, Six1-Eya2 blk 3, D2 ag -0.4 and TRPML1 agonist -0.5.
CC(=O)C1CCC2C3CC=C4N(C)C(=O)CCC4(C)C3CCC12C (configuration not stated) was read as PINK1 expr mod -3.2%, D2 PAM -2, CtBP-E1A inh -4, Six1-Eya2 blk 8, D2 ag -2.1 and TRPML1 agonist 0.4.
Screening CC1CCN(C(=O)CSc2nncn2C)CC1 returned PINK1 expr mod -1.0%, D2 PAM 6, CtBP-E1A inh 3, Six1-Eya2 blk 7, D2 ag -2.1 and TRPML1 agonist 0.5.
CCC(C)(C)n1nnnc1C(c1ccc(F)cc1)N1CCN(C(=O)c2ccco2)CC1 (configuration not stated) was read as PINK1 expr mod 1.2%, D2 PAM -8, CtBP-E1A inh 12, Six1-Eya2 blk -1, D2 ag -5.0 and TRPML1 agonist -1.1.
`O=C(c1cccc(F)c1)N1CCN(c2ccc([N+](=O)[O-])c(N3CCOCC3)c2)CC1` gave PINK1 expr mod -0.2%, D2 PAM 2, CtBP-E1A inh -12, Six1-Eya2 blk -14, D2 ag -1.4 and TRPML1 agonist 1.0.
Screening Cc1noc(C)c1CSCC(=O)N1CCN(c2ccc(F)cc2)CC1 returned PINK1 expr mod 1.8%, D2 PAM -4, CtBP-E1A inh 2, Six1-Eya2 blk -1, D2 ag -2.5 and TRPML1 agonist 0.5.
Screening COc1ccc(OC)c(NC(=O)CSc2nc(=O)n(CCN3CCOCC3)c3c2CCCC3)c1 returned PINK1 expr mod 3.3%, D2 PAM 4, CtBP-E1A inh 4, Six1-Eya2 blk -13, D2 ag 0.9 and TRPML1 agonist -0.2.

Structures listed so far with a Cl atom, in the order listed:
For CC(=O)N1CCN(S(=O)(=O)c2c(F)cc(F)c(Cl)c2F)CC1 the results were PINK1 expr mod 1.4%, D2 PAM 1, CtBP-E1A inh -7, Six1-Eya2 blk -1, D2 ag -3.7 and TRPML1 agonist 1.1.
COc1ccc(Cl)cc1C(Nc1cccnc1)c1ccc2cccnc2c1O (configuration not stated) was read as PINK1 expr mod 7.4%, D2 PAM -2, CtBP-E1A inh -67*, Six1-Eya2 blk inconclusive, D2 ag 4.2 and TRPML1 agonist 2.1.
Cc1sc2ncnc(N3CCC(C(=O)Nc4nc5ccc(Cl)cc5s4)CC3)c2c1C was read as PINK1 expr mod 7.1%, D2 PAM -12, CtBP-E1A inh 1, Six1-Eya2 blk 2, D2 ag -1.2 and TRPML1 agonist 0.4.
